HPGD inh: HPGD (human) dehydrogenase inhibition; P15428; purified HPGD, NADH fluorescence kinetic, PGE2 substrate; Potency, µM, for the others: top-dose activity change, negative = inhibition, usual class: inhibitors; actives 4.3% (n = 150,000); active = well fitted inhibition curve with a large enough effect (not every such curve was filed as active); inconclusive = small, poorly fitted or top-dose-only effect, or another doubt; inactive = no such curve, though single readings can be large or run the other way;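 further: top concentration of the series not given in the record; plate controls included wells without enzyme; inactives centre near -10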
Target sequence (P15428 whole entry, looked up): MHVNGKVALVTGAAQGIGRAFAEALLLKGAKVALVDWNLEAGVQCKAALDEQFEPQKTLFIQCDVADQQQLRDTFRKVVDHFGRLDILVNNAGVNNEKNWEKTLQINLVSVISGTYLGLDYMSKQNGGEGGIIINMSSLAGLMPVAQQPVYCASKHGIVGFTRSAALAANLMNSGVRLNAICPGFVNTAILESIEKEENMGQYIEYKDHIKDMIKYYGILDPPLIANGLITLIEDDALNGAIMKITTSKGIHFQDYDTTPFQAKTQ
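20 nM HPGD preincubated 15 min at room temperature with compound in 50 mM Tris-HCl pH 8, 0.01% Tween 20. Started with 1 mM NAD+ and 30 uM prostaglandin E2; NADH fluorescence (360/450 nm) read 5 times over 30-s intervals, last minus first.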
* marks the source's active call; other numbers are inactive results; ? = inconclusive; & = joins results of further samples; [ ] = dose if it differs, or a comment. On the % scale 0 is the no-effect control and ±100 the full control effect; potency means the concentration at half of the fitted maximal effect. An excerpt; rates above refer to the full screens.

SMILES	HPGD inh
COC(=O)c1c(C(=O)NCc2ccccc2)ncn1CC(O)COc1ccccc1 (stereo not drawn)	-9%
C[C@@H](C(=O)Nc1ccc2ccccc2c1)[C@H]1C[C@]1(C)[C@H](NC(=O)OCc1ccccc1)c1ccccc1	-23%&-24%
CCOC(=O)N1CCC(NC(=O)c2ccc3c(c2)N(Cc2ccccc2)CCS3)CC1	?
CC(=O)Nc1cc(S(=O)(=O)C(F)(F)F)ccc1Cl	-6%
O=C(CCS(=O)(=O)Cc1ccccc1)N1CCc2ccccc2C1	-5%
Cc1c(-c2ccccc2)oc2cc(O)ccc2c1=O	-23%
COc1ccc2[nH]cc(CCNc3ncnc4ccc(-c5ccc(C(=O)N(C)C)cc5)cc34)c2c1	?
CCOc1cccc(Oc2ccc(C(F)(F)F)cn2)c1	-11%
Cc1cc(C(F)F)n2nc(C(=O)Nc3cccc(C(F)(F)F)c3)nc2n1	-8%
COCCN(CC(=O)NCC1CCCO1)C(=O)CCC(=O)Nc1cc(C)ccn1 (stereo not drawn)	-7%
CCOC(=O)C(CSCC(=O)c1ccc(Br)cc1)NC(=O)OC(C)(C)C (stereo not drawn)	-18%
CN(C)c1ccc(Cc2ccc(N(C)C)cc2)cc1	-1%
CCOc1ccccc1OCc1nn2c(-c3ccc(C)cc3)nnc2s1	-20%
CNc1cc(C(F)(F)F)nc(-c2ccccn2)n1	-9%
C=CCN(CC(=O)Nc1c(C)cccc1CC)C(=O)SCCC	-10%
CCOC(=O)N1CCN(CC(=O)Nc2ccc(Oc3ccccc3)cc2)CC1	-3%
CC(=O)NS(=O)(=O)c1ccccc1	-2%
CCNc1oc(COc2ccccc2F)nc1C#N	14µM*
Cc1nn(C)c(Cl)c1S(=O)(=O)N[C@@H](c1ccccc1)[C@]1(C)C[C@H]1[C@@H](C)C(=O)Nc1ccc2ccccc2c1	-5%&-11%
CCN1CCN(Cc2c(OC)ccc3ccccc23)CC1	-3%
CC1C(c2ccccc2)N(C)CCC12NC(=O)NC2=O (stereo not drawn)	-9%
CC(=O)/C(N)=N/Nc1cccc(Cl)c1	-10%
CCOC(=O)N1CCN(C(=O)CSc2nnc(C3COc4ccccc4O3)o2)CC1 (stereo not drawn)	-16%
O=[n+]1c2c(n([O-])c3cc(F)c(N4CCCC4)cc31)CCCC2	-12%
CCOc1ccc(CC2CCC(=O)NC2=O)cc1 (stereo not drawn)	-8%
Cc1cccc(/C=C2/C(=O)/C(=C/c3ccccc3C)C3CCC2N3C)c1 (stereo not drawn)	1%
Cc1oc(C(=O)O)cc1CSCc1ccoc1C(=O)O	-1%
COc1cccc(-n2ccnc2SCC(=O)N2CCCc3ccccc32)c1	-4%
COc1ccc(S(=O)(=O)N2CCC(C(N)=O)(N3CCCCC3)CC2)cc1	-4%
COc1cccc(-n2nnnc2SCC(=O)Nc2ccc(C(C)=O)cc2)c1	-12%
O=C(CCCNC(=O)/C(=C/c1ccc(Br)cc1)NC(=O)c1ccccc1)OCc1ccccc1	-10%
CCc1c(C)[nH]c2ccccc2c1=O	-19%
Cc1cccc(NC(=O)C2CC(=O)OC23CCCCC3)c1 (stereo not drawn)	-4%
Cc1ccc(NC(=O)COC(=O)Cc2ccsc2)cc1S(=O)(=O)N1CCOCC1	0%
O=c1c2cc(F)ccc2[nH]c(=S)n1CCCN1CCOCC1	-4%
Cc1cc2c(c(=O)n1Cc1cccnc1)C(c1ccc(F)cc1)C(C#N)=C(N)O2 (stereo not drawn)	-3%
OCCN1CCOCCN(CCO)CCN(CCO)CC1	-11%
Cc1ccc(C(=O)OCC(=O)Nc2ncc(C(F)(F)F)cc2Cl)cc1NC(=O)c1ccco1	-4%
Cc1sc2ncnc(Oc3ccc(-n4ccnc4)cc3)c2c1C	-12%
COC(=O)COc1ccc(S(=O)(=O)NCc2cccnc2)cc1	0%
COc1ccccc1C(=O)NC(=Nc1nc2ccccc2o1)NC(=O)c1ccccc1OC	-24%
CCOC(=O)C1=C(CSc2nccn2C)NC(=O)NC1c1cc(C)ccc1C (stereo not drawn)	-6%
CN(C)S(=O)(=O)c1ccc2[nH]cc(/C=C/c3nc4ccccc4c(=O)n3-c3ccccc3)c2c1	256%[activator]
Cc1ccc2c(c1)NC(=O)C(CC(=O)NCCN(CC(C)C)CC(C)C)O2 (stereo not drawn)	-12%
COc1ccc(C(CC(=O)NCc2ccccc2)Sc2n[nH]c(-c3ccc(Cl)cc3)n2)cc1 (stereo not drawn)	-13%
CS(=O)(=O)c1ccc2nc(NC(=O)CN3CCCCCC3)sc2c1	-8%
COC(=O)c1cc(Br)c(=O)n(-c2cc(C)on2)c1	-17%
O=C(/C=C/c1ccc(Cl)cc1Cl)N1CCN(c2ccc([N+](=O)[O-])c(N3CCOCC3)c2)CC1	-10%
COC(=O)c1c(NC(=O)c2c(C)noc2C)sc2c1CCCCCC2	?
CCOc1ccc(C2C3=C(CCCC3=O)Nc3nc(C(F)(F)F)nn32)cc1OC (stereo not drawn)	-26%
Brc1ccc(C2=N[C@@H](Cc3ccccc3)CO2)cc1	-7%
COC(=O)Cn1c(=NC(=O)c2nc3ccccc3s2)sc2cc(S(C)(=O)=O)ccc21	?
Cc1cc(C)n(-c2c(F)c(F)c(CN3CCCCC3)c(F)c2F)n1	-14%
OCCN1CCN(C(=S)c2ccc(Cl)cc2)CC1	16µM*
CCC(=O)N1CCCc2cc(S(=O)(=O)N3CCN(c4ccccn4)CC3)ccc21	-8%
Cc1ccc(-n2c(-c3ccco3)nc3nc4ccccc4nc32)cc1F	?
C=C(C)C1CC[C@]2(CO)CC[C@@]3(C)[C@H](CCC4[C@@]5(C)CCC(O)C(C)(C)C5CC[C@@]43C)C12 (stereo partly drawn)	-8%
COC(=O)c1sccc1NC(=O)CN1CCN(c2ccc(F)cc2)CC1	-10%
CCCOc1ccccc1-n1sc2c(c1=S)-c1cc(OC)cc3c1N(C(=O)C3=O)C2(C)C	-19%
CCOc1cccc(N2C(=O)CC(N(CCc3ccc(OC)c(OC)c3)C(=O)CC)C2=O)c1 (stereo not drawn)	-2%

Two entries from above, as labelled records:
CCOc1ccc(C2C3=C(CCCC3=O)Nc3nc(C(F)(F)F)nn32)cc1OC (stereo not drawn)
  HPGD inh = -26%
CCC(=O)N1CCCc2cc(S(=O)(=O)N3CCN(c4ccccn4)CC3)ccc21
  HPGD inh = -8%

The results go on.
SMILES	HPGD inh
COc1ccc(C(=O)OCC(=O)Nc2cc(C)c(C)cc2[N+](=O)[O-])cc1	-1%
COc1ccc(-c2[nH]ncc2/C=N/NC(=O)c2cc(Br)ccc2O)c(OC)c1	-16%
Cc1ccc(Cl)cc1N1CCN(Cc2nc3c(c(=O)[nH]c(=O)n3C)n2CCc2ccccc2)CC1	2%
COc1ccc(C(C(=O)Nc2ccc(F)cc2)N(C(=O)Cn2nnc3ccccc32)C2CC2)cc1 (stereo not drawn)	-11%
OCCCN=C1CCCCC1	-5%
O=C(CC1COc2ccccc2O1)NCc1ccccc1 (stereo not drawn)	-23%
CC(C)C(c1nnnn1C1CCCCC1)N1CCc2ccccc21 (stereo not drawn)	5%
O=c1oc2ccccc2c(Nc2ccc3ncccc3c2)c1[N+](=O)[O-]	-10%
CC(CC1C(C#N)=C(N)SC(N)=C1C#N)c1ccccc1 (stereo not drawn)	14µM*
O=C(COc1ccccc1)NC1=NCCS1	-16%
Cn1ncc(Cl)c1C(=O)Nc1sc2c(c1C(N)=O)CCC2	?
CC1CC(C)(C)N(C(=O)NC2CCCCC2)c2ccccc21 (stereo not drawn)	4%

Reformatted: 5 of the compounds above.
| HPGD inh | SMILES |
| --- | --- |
| 2% | Cc1ccc(Cl)cc1N1CCN(Cc2nc3c(c(=O)[nH]c(=O)n3C)n2CCc2ccccc2)CC1 |
| -11% | COc1ccc(C(C(=O)Nc2ccc(F)cc2)N(C(=O)Cn2nnc3ccccc32)C2CC2)cc1 (stereo not drawn) |
| -5% | OCCCN=C1CCCCC1 |
| -23% | O=C(CC1COc2ccccc2O1)NCc1ccccc1 (stereo not drawn) |
| 5% | CC(C)C(c1nnnn1C1CCCCC1)N1CCc2ccccc21 (stereo not drawn) |

Other results.
SMILES	HPGD inh
Cc1cc(C)nc(NS(=O)(=O)c2cccs2)c1	-29%
Cc1cc2ccccc2n1CCNC(=O)C(C)Oc1ccccc1 (stereo not drawn)	-15%
CCCCOCCCNC(=O)c1ccccc1OCC	-2%
Cc1cc(=O)oc2ccc(OC(=O)CN3C(=O)c4cccc([N+](=O)[O-])c4C3=O)cc12	-2%
Cc1nc(NC(=O)CN(C)S(=O)(=O)c2ccc(Br)cc2)sc1C	-12%
CCOc1ccccc1N=C1NC(=O)CS1	-8%
COCCNC(=O)c1ccc(N(C)S(=O)(=O)c2ccc(OC)c(OC)c2)cc1	6.3µM*
CC1CCCCN1Cc1ccc(N)cc1 (stereo not drawn)	-11%
CCNC(=O)Nc1cc2nc(C)n(Cc3ccc(Br)cc3)c2nc1C	-16%
Cc1c(NC(=S)NC(=O)COc2ccccc2)c(=O)n(-c2ccccc2)n1C	0%
COC(=O)CCC(=O)Nc1ccc(S(=O)(=O)N2CCCCCC2)cc1	-16%
Cc1cc(C)c2[nH]c(=O)c(C(c3nnnn3CC3CCCO3)N3CCC(C)CC3)cc2c1 (stereo not drawn)	-8%
COC(=O)C1=C(NC(=O)c2ccc(C)c(C)c2)CCS1	?
CN1C(C(=O)Nc2ccccn2)=C(O)c2sccc2S1(=O)=O	-13%&-4%&-1%
O=C(Cc1cccs1)N1CCCC(c2nc(-c3ccc(S(=O)(=O)N4CCCC4)cc3)no2)C1 (stereo not drawn)	-8%
CCOc1ccc(N(CC(=O)NCCCOC)S(C)(=O)=O)cc1	-6%
O=C1OCCC1Sc1nnc(-c2ccc3c(c2)OCO3)n1-c1ccccc1 (stereo not drawn)	-4%
Cn1c(=O)[nH]c(=O)c2c1nc(CN1CCN(c3ccc(F)cc3)CC1)n2CCCc1ccccc1	-8%
CCOC(=O)CCS(=O)(=O)c1ccc(-c2ccc(S(=O)(=O)CCC(=O)OCC)cc2)cc1	-5%
CCCn1c(C(O)c2ccc(OCC)cc2)nc2ccccc21 (stereo not drawn)	-9%
CC1=CC(=O)C=C(C)C1=NOS(=O)(=O)c1ccccc1	-15%
O=C(C1CCCCC1)N(Cc1nc2sc3c(c2c(=O)[nH]1)CCCC3)Cc1cccs1	?
COC(=O)CNC(=O)C(NC(=O)c1ccc(Cl)cc1)C(C)C (stereo not drawn)	-9%
CCn1c(-c2cc3ccccc3cc2O)n[nH]c1=S	?

Random excerpt: 2 records from the list
SMILES	HPGD inh
COC(=O)CNC(=O)C(NC(=O)c1ccc(Cl)cc1)C(C)C (stereo not drawn)	-9%
CCCn1c(C(O)c2ccc(OCC)cc2)nc2ccccc21 (stereo not drawn)	-9%

(listing goes on)
SMILES	HPGD inh
O=C(Nc1cc(C(=O)Nc2ccc(S(=O)(=O)O)cc2S(=O)(=O)O)cc(C(=O)Nc2ccc(S(=O)(=O)O)cc2S(=O)(=O)O)c1)Nc1cc(C(=O)Nc2ccc(S(=O)(=O)O)cc2S(=O)(=O)O)cc(C(=O)Nc2ccc(S(=O)(=O)O)cc2S(=O)(=O)O)c1	-8%&-8%
O=c1[nH]cnc2nn(-c3ccccc3)nc12	?
Cc1ccc(Cl)cc1N1CCN(Cc2nnnn2C2CCCCC2)CC1	-14%
CCC(=O)c1cccc2c1N=CC1=C(CC(C)(C)CC1=O)N2	-1%
COc1ccc2c(c1)CC/C(=C\c1ccc(OC)c(Cn3cccn3)c1)C2=O	-24%
COc1ccccc1CNC(=O)COC(=O)C1=COCCO1	-2%
NC(=O)C1C(c2ccccc2)=C1c1ccccc1	1%
CCN(CC)S(=O)(=O)c1cc(C(=O)NC2CCCCC2)ccc1C	-6%
CC1CN(CC(O)COc2ccc(C(=O)c3ccccc3)cc2)CC(C)O1 (stereo not drawn)	-10%
CCN(CC)S(=O)(=O)c1ccc(N2CCCCC2)c(NC(=O)/C=C/c2ccc(OC)c(OC)c2)c1	?
O=c1c2ccccc2c(/C=N/n2cnnc2)c(O)n1-c1ccccc1	?
CCCn1c(-c2ccc(F)cc2)nc2c(N3CCCN(Cc4ccccc4)CC3)nc(C)nc21	?

HPGD inh: entries above that show a hit.
SMILES	HPGD inh
CCNc1oc(COc2ccccc2F)nc1C#N	14µM*
OCCN1CCN(C(=S)c2ccc(Cl)cc2)CC1	16µM*
CC(CC1C(C#N)=C(N)SC(N)=C1C#N)c1ccccc1 (stereo not drawn)	14µM*
COCCNC(=O)c1ccc(N(C)S(=O)(=O)c2ccc(OC)c(OC)c2)cc1	6.3µM*

(next part)
SMILES	HPGD inh
Clc1ccc2c(c1)-c1nnc(Br)n1-c1ccccc1S2	18µM*
CCCCCN(C(=O)NC(=O)Nc1ccccc1OC)S(C)(=O)=O	-7%
COc1ccc(S(=O)(=O)N(C)CC(=O)NCc2cccnc2)cc1	-2%
O[C@@H](COc1cccc2ccccc12)CN1CCOCC1	-2%
CCOC(=O)C(NCc1ccc(F)cc1)(NC(=O)c1ccccc1)C(F)(F)F (stereo not drawn)	-13%
CC(C)NC(=O)Cn1cnc2c1c(=O)n(C)c(=O)n2C	-8%
Fc1ccc(Cn2nnc(-c3ccc(CN4CCOCC4)cc3)n2)cc1	-2%
Cn1c(CSCc2ccc(Cl)cc2)nnc1SCC(=O)Nc1nccs1	?
CN(Cc1nc2ccccc2c(=O)[nH]1)CC(O)COCc1ccco1 (stereo not drawn)	4%
O=C(Nc1cccc2nsnc12)c1ccc(F)cc1	?

From PubChem BioAssay
